BJeLR viability – kills HRASV12-expressing BJeLR cells | BJeLR (HRASV12) viability, CellTiter-Glo ATP luminescence, 48 h; reference of the scale not given here | inhibition, % (test concentration not listed) | 300,000 tested, 0.17% active | AID 1554;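 active = replicate mean above 50%; inconclusive = above 50% but judged a plate artefact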;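 note: 50 nL library stock added to about 25 µL; numbers are from one replicate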
PrP UTR inh – inhibition of PrP 5' UTR reporter expression; inhibition, % (no concentration beside the values); AID 488862; cell-based PrP 5' UTR mRNA reporter, plate reader; 340,000 tested, 0.35% active;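 active = every replicate at 50% or more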;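 note: 0 = median of the neutral control wells; tested in H4 reporter cells; numbers are from one replicate; inactives centre near -14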
Sa RN4220 lethal – kills Staphylococcus aureus RN4220; 330,000 tested, 0.33% active; AID 1259311; inhibition, % (no concentration beside the values); S. aureus RN4220 growth, OD600, 16 h;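 active = z-score of -3 or lower and OD600 up to 0.18 on both plates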;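 note: plate controls were untreated cells for no effect and reference antibiotic for full effect; stock transfer was 100 nL into about 80 µL; one replicate is shown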
Mtb hypoxia rep – inhibitors of hypoxia-regulated fluorescent reporter in Mycobacterium tuberculosis; fluorescence inhibition, % (concentration not given with the values); 300,000 tested, 0.1% active; M. tuberculosis hypoxia-regulated fluorescent reporter, fluorescence; AID 1159583;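 active = 35 to 45% if threefold the growth effect, above 45% if 1.5-fold the growth effect; inactive = the rest, general growth blockers included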;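 note: wells of about 50 µL received 100 nL stock; 0% = vehicle wells and 100% = reference inhibitor wells; whole bacteria with a GFP reporter of the hypoxia response; strong numbers were not always called active; many hits fall short of the cut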
Autofluor counter – compound fluorescence in toxin protease inhibitor counterscreen | compound autofluorescence counterscreen, microsphere flow cytometry; hits give high values | fluorescence intensity (concentration not given with the values) | 360,000 tested, 3.1% active;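 active = at least 3 SD above the mean of all compounds, about 16000 in these data; inconclusive = too few beads counted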;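 note: 100 nL of 1 mM stock went into each well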
Sa ugtP lethal – growth inhibition of S. aureus ugtP deletion strain. S. aureus RN4220 ugtP deletion, OD600 growth, 16 h; some inactives read as strong as hits. AID 1259309. 330,000 tested, 0.54% active. growth inhibition, % (concentration not given with the values);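 active = z-score under -3 and OD600 up to 0.15 on both plates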;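 note: plate controls were untreated wells for no effect and antibiotic for full effect; wells of about 80 µL received 100 nL stock; the first replicate is given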
Mtb hypoxia rep growth – further read-out of Mtb hypoxia rep, marked with its call; growth inhibition, %; measured here: M. tuberculosis growth (absorbance);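 0% = vehicle and 100% = reference antibiotic; read after six days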
An asterisk follows results filed as active; ? = inconclusive; . = not tested or not shown; & = joins results of further samples. Compounds were not picked by outcome; 4% or so of the library scored in one or more.

SMILES | BJeLR viability | PrP UTR inh | Sa RN4220 lethal | Mtb hypoxia rep | Mtb hypoxia rep growth | Autofluor counter | Sa ugtP lethal
c1ccc(Cn2nnc3c(N4CCC5(CC4)OCCO5)ncnc32)cc1 | 6 | -10 | -2.9 | . | . | 3246 | 7
COc1ccccc1N(CC(=O)NCCSCc1ccc(C)cc1)S(=O)(=O)c1ccccc1 | 11 | -4 | -1.2 | 2 | -6 | ? | 3
O=C(CSc1cccc(C(F)(F)F)c1)Nc1ccc(N2CCOCC2)cc1 | . | -4 | 2.2 | 7 | 4 | ? | 9
CCOC(=O)CC(=O)CSc1nc(-c2ccccc2)cc(-c2ccccc2)c1C#N | -9 | -11 | 5.1 | 4 | -10 | 2645 | -14
O=C(CCC1CCCCC1)NNC(=O)NC12CC3CC(CC(C3)C1)C2 | -2 | -12 | -0.2 | 1 | 6 | 23967* | -7
Cc1ccc(C(=O)C=CNNC(=O)c2ccccc2)cc1 | -1 | -10 | . | . | . | 3909 | .
O=C(CNC(=O)c1cccs1)NCC(=O)OCc1ccccc1Br | 5 | -13 | 4.1 | -6 | -4 | 4446 | 5
O=C(NCCN1C(=O)S/C(=C\c2ccc(Cl)c(Cl)c2)C1=O)c1cnccn1 | -2 | -23 | 2.6 | -1 | -1 | 2424 | -1
O=C(NC1CCCCC1)C1CCN(C(=O)NCc2ccccc2)CC1 | -6 | -15 | -0.3 | 5 | 2 | 16321* | 3
COc1cccc(CNC(=O)CCCCCNC(=O)N2CCn3c2nc2ccccc23)c1 | -2 | -8 | -0.9 | 3 | 5 | 5743 | 5
Cn1nccc1NC(=O)c1nccnc1C(=O)O | 0 | -3 | 4.6 | 2 | 2 | 6148 | 12
CC(C)(C)C(=O)COC(=O)c1ccc(O)cc1 | -14 | -9 | 0.4 | . | . | 2436 | 1
CC(C)(C)OC(=O)CNC(=O)c1nc[nH]c1C(=O)NCc1ccccc1 | 11 | -3 | 9.1 | 15 | 14 | 2886 | 5
Cc1nc2ccc(NC(=O)Cc3cccc(F)c3)cc2s1 | 0 | 3 | 3.0 | -16 | 3 | 4045 | -4
CCN(CC)CCSc1nnc2c3ccccc3n(CCc3ccccc3)c2n1 | 7 | -13 | 4.0 | -1 | 1 | 2901 | 4
COCCCNC(=O)C(=O)Nc1cc2c3c(c1)CCN3C(=O)CC2 | -2 | -25 | 2.3 | 11 | 2 | 5889 | -1
O=C(C[n+]1cc(-c2ccc(Cl)c(Cl)c2)n2c1CCC2)N1c2ccccc2Sc2ccccc21 | -6 | -18 | 100* | 5 | 21 | 2670 | 101*
COC(=O)c1c(NC(=O)COC(=O)c2ccc(O)cc2)sc2c1CCCCC2 | -5 | -19 | -6.7 | -10 | 1 | 2589 | -34
CC1CCN(CCNC(=O)c2ccc(NC(=O)C3CCCO3)cc2)CC1 (stereo not given) | -2 | 4 | 3.6 | -1 | -6 | 4406 | 0
O=C(CSc1nc2ccccc2o1)NC(=O)NCc1ccco1 | 1 | -23 | 6.4 | -1 | -2 | 15762 | 4
Cc1nc(NN)nc(NCc2ccccc2)n1 | -1 | -16 | . | . | . | 3091 | .
O=C(COC(=O)c1cc(S(=O)(=O)N2CCCCC2)ccc1N1CCOCC1)c1ccc(Cl)cc1 | 1 | -11 | 4.7 | -11 | -7 | ? | 0
COc1ccc(OC)c(C(=O)COC(=O)c2ccccc2O)c1 | 7 | -31 | -0.2 | 9 | 6 | 22401* | 12
O=C(CN1CCN(Cc2ccccc2)CC1)N/N=C\C=C/c1ccco1 | -7 | 2 | . | . | . | 1960 | .
CC(C)(C)c1ccc(OCCC(=O)OCC(=O)Nc2ccc(N3CCOCC3)cc2)cc1 | 5 | -4 | 4.6 | 9 | 3 | 5960 | 2
NC(=O)c1nn(CC(=O)Nc2cccc(S(=O)(=O)N3CCCC3)c2)c(=O)c2ccccc12 | . | -9 | -1.0 | -6 | 1 | 5903 | 1
CC(=O)Oc1ccc(C(=O)O)c(OC(C)=O)c1 | -2 | -41 | 10 | 3 | -4 | 2182 | 5
CC[n+]1c(/C=C/c2ccc(OC)c(OC)c2)ccc2ccccc21 | 0 | -75 | 1.0 | 8 | 1 | 4307 | 4
COCCNC(=O)/C(C#N)=C/c1cccc(NC(=O)c2ccccc2Cl)c1 | 5 | -25 | 3.5 | 3 | 0 | 2619 | -6
CC(=O)Nc1ccc2c(c1)C(=O)c1ccccc1C2=O | -2 | -86 | 14 | -19 | -6 | 6602 | 6
CNC(=O)OC(C)CNS(=O)(=O)c1ccc(C)cc1 (stereo not given) | 8 | -3 | 3.8 | 2 | 4 | 10671 | 8
CCOC(=O)c1cnn(-c2ccccc2)c1-n1cccc1C(=O)C(=O)Nc1ccccc1C(F)(F)F | -9 | -23 | -3.9 | . | . | 2743 | 1
CC(CCc1ccccc1)NC(=O)CCC(=O)N1CCC(C(N)=O)CC1 (stereo not given) | 1 | -3 | -1.4 | 19 | 9 | 3342 | 5
COc1ccc(C)cc1NC(=O)C(c1ccccc1)N1CCN(CC(=O)N2CCCC2)CC1 (stereo not given) | . | -14 | 2.9 | 7 | 5 | 5738 | 11
O=C(NCCO)C(=O)Nc1cc2c3c(c1)CCC(=O)N3CCC2 | -1 | -3 | 4.7 | 7 | 10 | 5160 | 7
Cc1ccc(-c2nn(Cc3ccccc3)cc2C(=O)O)cc1 | 5 | -1 | 4.1 | -8 | -1 | 4411 | 13
CCOc1cc(C2NN=C(c3ccc(C)cc3)S2)ccc1O (stereo not given) | . | -117 | 18 | -1 | 10 | 2047 | 43
CCOC(=O)C1=C(C)N(C)C(=O)C1CC(=O)O (stereo not given) | 0 | -10 | 3.2 | 8 | 5 | 15679 | 3
C=CCC(CC(=O)NCCO)C(=O)NCC(OC(=O)C(CC=C)Cc1ccc(F)cc1)c1ccccc1 (stereo not given) | . | . | 11&9.2&7.3 | 15&1&8 | 8&4&4 | . | 1&2&-11
O=C(CN1CCC(C(=O)c2ccc3c(c2)OCCO3)CC1)NC1CCCC1 | -17 | -2 | 9.0 | 3 | 5 | 8720 | 11
CCCC(C)C(=O)N(Cc1ccccc1)c1ccccn1 (stereo not given) | 11 | -13 | -0.3 | -3 | 4 | 12556 | -5
CC(=O)Nc1cccc(NC(=O)COc2ccc3c(c2)OCO3)c1 | -1 | -14 | 4.9 | 0 | -5 | 3261 | 1
O=C(Nc1ccc2c(c1)N(Cc1ccccc1)C(=O)c1ccccc1S2)NC1CC1 | -11 | 0 | -3.5 | 7 | 9 | 3977 | -15
COc1ccc(-c2nnc(SCCC(=O)O)n2C)cc1OC | -6 | -22 | 4.3 | . | . | 5130 | -1
COC(CNC(=O)Cn1ncc2ccsc2c1=O)OC | -1 | -10 | 0.9 | 0 | -7 | 4348 | -1
CCCNC(=S)N1CCC(NC(=O)C23CC4CC(CC(C4)C2)C3)CC1 | 2 | -12 | -1.6 | -3 | 6 | 4160 | -4
COc1ccc([N+](=O)[O-])cc1NC(=O)CSCc1ccccc1 | 0 | -16 | 3.7 | 18 | 9 | 2406 | 16
Cc1ccccc1OCc1csc(N)n1 | 8 | -25 | 10 | 5 | 5 | 4227 | 11
COc1cccc(N2C(=O)C(c3ccccc3)=C(c3nc4ccccc4s3)C2NC(C)=O)c1 (stereo not given) | -7 | -31 | 11 | -9 | -3 | 21453* | -31
Cc1ccc(C2=NN(C(=O)CSc3nnnn3C)C(c3ccco3)C2)cc1 (stereo not given) | . | 4 | 5.0 | 10 | 5 | 3822 | 1
COCCNc1ccc(-c2nn(C)c(=O)c3ccccc23)cc1[N+](=O)[O-] | 2 | -19 | 3.8 | 9 | 2 | 3736 | 6
CSc1ccc(CNCCN2CCOCC2)cc1 | -1 | -3 | 2.7 | 9 | 3 | 3991 | 2
O=C(N/N=C/c1ccccc1O)C(=O)Nc1ccccn1 | -1 | -9 | . | . | . | 4422 | .
Cn1cc(/C=C(\C(=O)O)C(C(=O)O)=C2CCCCC2)c2ccccc21 | 6 | -20 | . | . | . | 3646 | .
CCOC(=O)C1(Cc2ccccc2C(F)(F)F)CCN(C2CCCC2)CC1 | . | -14 | 9.2 | -6 | -7 | 3379 | 6
Cc1ccc(C(=O)COC(=O)CCc2ccc(S(=O)(=O)N3CCCCC3)cc2)cc1 | 3 | -16 | -6.7 | -4 | -11 | 2517 | -2
COc1ccc(Cl)cc1N(CC(=O)NN=Cc1ccc(OCC(N)=O)cc1)S(C)(=O)=O | . | . | 0.3 | 4 | 11 | . | 4
Cc1cccc(C)c1NC(=O)CSc1nnc(NC(=O)CN2CCOCC2)s1 | 1 | -3 | 5.6 | . | . | 3545 | 11
COc1cccc(CN2CC(C(=O)NCCN3CCOC3=O)CCC2=O)c1 (stereo not given) | -5 | -10 | 0.3 | 1 | 7 | 5575 | 2
CC(=N/O)/C(C)=N\NC(=O)c1ccccn1 | -3 | -48 | . | . | . | 4282 | .

Results in Mtb hypoxia rep and BJeLR viability, for some of the entries so far:
canonical_smiles	Mtb hypoxia rep	BJeLR viability
CCCC(C)C(=O)N(Cc1ccccc1)c1ccccn1 (stereo not given)	-3	11
CC(=O)Nc1cccc(NC(=O)COc2ccc3c(c2)OCO3)c1	0	-1

Additional records:
SMILES | BJeLR viability | PrP UTR inh | Sa RN4220 lethal | Mtb hypoxia rep | Mtb hypoxia rep growth | Autofluor counter | Sa ugtP lethal
CC(C)NC(=O)c1cccc(NC(=O)CC2SC(N3CCCCC3)=NC2=O)c1 (stereo not given) | . | -9 | 1.2 | -1 | 3 | ? | 1
c1ccc(-n2cc(CN3CCCC3)c(-c3ccc4c(c3)OCO4)n2)cc1 | 4 | -16 | 3.9 | 3 | 2 | 4333 | -3
O=C(CCOc1ccccc1)Nc1ccnn1C1CCN(Cc2ccc(CO)o2)CC1 | 8 | -33 | 2.9 | 5 | 5 | 6358 | 11
COc1ccc(/C=C/C(=O)NCC(c2ccc(F)cc2)N2CCOCC2)cc1OC (stereo not given) | 4 | -11 | -2.4 | -17 | 2 | 3709 | -6
CCC(C)NC(=O)NCc1ccccc1F (stereo not given) | -4 | -24 | 5.8 | 16 | 10 | 2524 | -3
c1ccc(CSc2nnnn2-c2cccc3ccccc23)nc1 | . | -10 | 2.9 | . | . | 4817 | -4
O=C(CCC(=O)Nc1ccccc1Cl)NNC(=O)c1ccccc1[N+](=O)[O-] | -4 | -6 | 0.1 | 4 | 3 | 3980 | 5
CC(=O)Nc1sc(NN=Cc2ccco2)nc1-c1cccs1 | . | . | -2.1 | 1 | 6 | . | 5
CC1=NOC2(C)Nc3ncnn3C(c3ccccc3)C12 (stereo not given) | -4 | -8 | 4.1 | 4 | 14 | 3926 | 4
COc1ccc(S(=O)(=O)N2CCN(C(=O)C3CCCCC3)CC2)cc1 | 4 | -18 | -4.4 | 4 | -1 | 6138 | 13
C=CCN(CC=C)C(=O)CN1C(=O)c2ccccc2C1=O | -2 | 0 | 4.6 | 7 | 4 | 16346* | 6
CCCCn1nnnc1NCc1ccc(OC)c(OC)c1 | 12 | -6 | -0.1 | 6 | -4 | 6664 | 5
COc1ccccc1NC(=O)C(C)Sc1nc(-c2ccccc2)cn1N (stereo not given) | . | . | 3.7 | 1 | 13 | ? | 4
O=C(O)CCc1ccc(-c2cccs2)o1 | -15 | -1 | 1.8 | 0 | -3 | 6611 | 4
OCC1(CCOc2ccccc2)CCN(Cc2ccc(OC(F)F)cc2)CC1 | -13 | -9 | 0.6 | 2 | -4 | 3456 | 9
CN(C)S(=O)(=O)c1cc(NC(=O)CN2CCN(c3ccc(O)cc3)CC2)ccc1Cl | 8 | -15 | 2.4 | 2 | 2 | 3124 | 6
Cc1c(N(C)S(=O)(=O)c2cccc(C(=O)NC(C)C)c2)c(=O)n(-c2ccccc2)n1C | -1 | -24 | -1.7 | 5 | -1 | 6453 | 9
CN(C)c1nc(N)c([N+](=O)[O-])c(NCC2CCCO2)n1 (stereo not given) | -5 | 2 | 1.4 | -2 | -2 | 4374 | 1

As entered above.
In BJeLR viability, `C=CCN(CC=C)C(=O)CN1C(=O)c2ccccc2C1=O` has the entry -2
In Sa RN4220 lethal, `Cc1c(N(C)S(=O)(=O)c2cccc(C(=O)NC(C)C)c2)c(=O)n(-c2ccccc2)n1C` has the entry -1.7
In Mtb hypoxia rep growth, `CN(C)S(=O)(=O)c1cc(NC(=O)CN2CCN(c3ccc(O)cc3)CC2)ccc1Cl` has the entry 2
In Mtb hypoxia rep, `CN(C)c1nc(N)c([N+](=O)[O-])c(NCC2CCCO2)n1` (stereo not given) has the entry -2

Bioassay records deposited in PubChem by several laboratories.
